Six1-Eya2 inh – blocks human Six1 binding to Eya2 | Q15475+O00167 | activity change, % (test concentration not listed) | AlphaScreen GST-Six1/His-Eya2 binding, biochemical; stronger effect = lower value; control for the full effect not named in the record | actives 0.56% (n = 360,000) | AID 651725; in the data active = activity change below about -65%; inconclusive = about -30% to -65%; inactive = above about -30%; note: % is set by controls: 0 for no effect and ±100 for the full control effect; compound concentration not given in the record
Target sequence (O00167 whole entry, looked up): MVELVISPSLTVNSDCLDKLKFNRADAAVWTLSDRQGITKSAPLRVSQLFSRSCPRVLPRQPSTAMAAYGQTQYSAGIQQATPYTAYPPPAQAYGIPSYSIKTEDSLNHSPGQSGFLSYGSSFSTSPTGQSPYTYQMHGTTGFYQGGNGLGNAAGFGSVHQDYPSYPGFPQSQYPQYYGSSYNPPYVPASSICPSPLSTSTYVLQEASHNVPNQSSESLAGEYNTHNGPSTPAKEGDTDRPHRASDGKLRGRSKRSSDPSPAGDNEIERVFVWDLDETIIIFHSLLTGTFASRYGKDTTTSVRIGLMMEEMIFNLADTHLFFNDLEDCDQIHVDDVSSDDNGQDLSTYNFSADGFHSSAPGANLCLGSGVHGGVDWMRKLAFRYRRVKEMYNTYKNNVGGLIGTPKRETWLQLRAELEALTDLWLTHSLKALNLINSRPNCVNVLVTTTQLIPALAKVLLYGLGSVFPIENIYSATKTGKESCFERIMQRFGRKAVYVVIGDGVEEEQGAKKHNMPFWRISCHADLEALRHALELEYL
Target sequence (Q15475 whole entry, looked up): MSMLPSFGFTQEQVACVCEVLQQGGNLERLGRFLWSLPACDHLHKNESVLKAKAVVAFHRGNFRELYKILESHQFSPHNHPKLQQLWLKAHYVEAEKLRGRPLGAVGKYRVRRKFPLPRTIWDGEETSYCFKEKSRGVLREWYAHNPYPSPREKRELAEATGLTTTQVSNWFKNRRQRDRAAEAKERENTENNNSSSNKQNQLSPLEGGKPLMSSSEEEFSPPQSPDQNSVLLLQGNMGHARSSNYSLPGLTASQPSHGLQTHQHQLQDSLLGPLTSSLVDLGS
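AlphaScreen with GST-Six1 and His-Eya2 (5X mix: 250 nM and 500 nM), glutathione donor and nickel acceptor beads; buffer 50 mM Tris pH 8.0, 300 mM NaCl, 1 mM TCEP; 1 h at 37 C in the dark.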
TRPML1 inh – inhibitors of human TRPML1 channel; Q9GZU1; TRPML1-inducible cells, Ca2+ dye fluorescence, FDSS; stronger effect = lower value; inhibition of EC80 agonist-evoked calcium signal; activity change, negative = inhibition, % (test concentration not listed); actives 0.02% (n = 390,000); AID 624415; in the data active means activity change below about -50%; inconclusive means about -30% to -50%; inactive means above about -30%;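 note: stimulus is agonist 54-4 at its EC80 concentration; % is set by controls: 0 for no effect and ±100 for the full control effect; compound concentration not given in the record; the text of the record puts the active cut at -80%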
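TRPML1-DL cells, Tet-induced overnight (~16 h, 37 °C) at 1,500 cells/well, were loaded with Ca8 no-wash dye plus quencher for 45-90 min at room temperature. Compounds were pinned during FDSS kinetic reading; agonist 54-4 at EC80 (4 uM final) then added.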
PINK1 modulator – changes PINK1 expression | actives 0.2% (n = 410,000) | Potency, µM (top dose mostly 76.6 µM), for inactives: at the highest dose activation (PINK1 increase), usual class: activators | PINK1 immunofluorescence, high-content cytometry, 24 h; active = well fitted activation curve with a large enough effect; inconclusive = small, poorly fitted or top-dose-only effect; inactive = flat fitted curve, though single readings scatter; cell line not stated here;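 note: potency is the fitted concentration of half-maximal effect; % of control where 0% means no effect; nearly all actives have a fitted effect of over 65% in size; a mitochondrial uncoupler was the plate control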
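Decision-based qHTS: stable cells, 24 h exposure to five compound concentrations, CCCP as control. Fixed cells stained for PINK1 plus nuclear, mitochondrial and cell markers, cytometer read.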
D2 ag – human D2 receptor agonism in beta-arrestin assay; P14416; DiscoveRx PathHunter D2 beta-arrestin, luminescence, 90 min; 100% = 57 uM dopamine signal; activation, % (test concentration not listed); actives 0.084% (n = 360,000); AID 624465; in the data active = activation above about 40%; inconclusive = about 15% to 40%; inactive = below about 15%; note: compound concentration not given in the record; the text of the record calls up to 30% inactive
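DiscoveRx PathHunter D2 beta-arrestin cells (2,100/well) attached overnight, then compound-stimulated 90 min at 37 C in HBSS/10 mM HEPES/0.1% Tween-20 buffer; beta-galactosidase complementation read by luminescence after 1 h at ambient temperature. Dopamine 57 uM final (EC100) as control.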
CtBP-E1A inh – CtBP/E1A binding inhibition; activity change, % (test concentration not listed); AlphaScreen GST-E1A/His-CtBP binding, 1536-well; stronger effect = lower value; control for the full effect not named in the record; actives 0.49% (n = 340,000); in the data active means activity change below about -65%; inconclusive means about -30% to -65%; inactive means above about -30%; note: % is set by controls: 0 for no effect and ±100 for the full control effect; compound concentration not given in the record
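Protein mix (5X: 125 nM each GST-E1A, His-CtBP) was incubated with pinned compound 2 h at 37 deg C in dark, in 50 mM Tris pH 8.0 buffer with 300 mM NaCl. Glutathione donor and nickel acceptor beads followed; AlphaScreen signal read after 1 h.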
TRPML1 agonist – activates the human TRPML1 channel; actives 0.12% (n = 410,000); activation, % (test concentration not listed); AID 624414; TRPML1-expressing cells, Ca2+ dye fluorescence, FDSS; host cell line not named in the record; reference of the full effect not given here; in the data active = activation above about 50%; inconclusive = about 30% to 50%; inactive = below about 30%; note: 0% is about no effect; the text of the record puts the active cut at 80%
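Agonist activity was taken from a 110 s kinetic Ca2+ dye read on the FDSS after pinning compounds onto TRPML1-DL cells. The cells were seeded at 1,500/well with Tet inducer, incubated about 16 h, then dye-loaded at room temperature.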
Starred values were filed as active, the others as inactive; ? = inconclusive; . = not tested or not shown; & = joins results of further samples; [ ] = dose if it differs, or a comment.

Results follow in this order: Six1-Eya2 inh | TRPML1 inh | PINK1 modulator | D2 ag | CtBP-E1A inh | TRPML1 agonist
COc1ccc(/C=C/C(=O)NC(=S)NNC(=O)c2cc(OC)c(OC)c(OC)c2)cc1OC
    -28 | -16 | 3.2% | -7.8 | . | -0.9
COC(=O)c1ccc(N=NNc2ccc(C(=O)OC)cc2)cc1
    -3 | 6 | 6.9% | -4.0 | 3 | 0.3
CC1CCC2(CC1)NC(=O)N(CC(=O)c1ccc[nH]1)C2=O (centres undefined)
    3 | -11 | 2.6% | -3.2 | 5 | 0.0
CC(c1ccon1)N(C)C(=O)CCc1nnc(CCCCc2ccccc2)o1 (centres undefined)
    -1 | 1 | 0.7% | -1.6 | 5 | -0.5
CC1=NN(C(=O)c2ccc(C)o2)C(O)(c2ccccc2)C1 (centres undefined)
    1 | -5 | 0.4% | -2.7 | -2 | 0.3
COc1ccc(S(=O)(=O)NCC(=O)N(CC(=O)NC(C)(C)C)Cc2cccs2)cc1
    -5 | -4 | -1.6% | -4.0 | 2 | -0.4
COc1ccc(Cl)cc1N(CC(=O)Nc1ccccc1C(=O)N1CCOCC1)S(C)(=O)=O
    2 | 11 | 3.4% | 0.7 | 10 | 0.2
O=[N+]([O-])c1ccc(NC(=S)N2CCOCC2)cc1
    3 | 17 | -0.3% | -1.7 | 5 | 0.3
O=C(c1ccc(F)cc1)C1CCN(C(=O)c2c(F)cccc2F)CC1
    4 | 6 | -0.9% | 1.8 | 2 | -0.4
COc1ccc(-c2nc3c(Br)c(N)c(Br)cc3o2)cc1
    1 | -14 | ? | 7.8 | 3 | 0.7
CCCSc1ccc([C@@H]2[C@@H]3C(=O)N(C)C(=O)[C@@H]3[C@]3(C(=O)OC)CCCCN23)cc1OC
    -5 | -8 | -0.2% | -1.5 | -3 | -0.8
Cc1ccc(C(=O)OCC(=O)Nc2cc(S(=O)(=O)N3CCOCC3)ccc2C)cc1
    -2 | -30 | 2.0% | 4.4 | 3 | 1.4
O=C(Nc1ccc(F)cc1)C1CCCN1S(=O)(=O)c1cccc2nsnc12 (centres undefined)
    2 | -20 | 0.0% | -3.4 | . | -0.9
O=C(C1CCOCC1)N1CCCC(N2CCN(c3cccc(C(F)(F)F)c3)CC2)C1 (centres undefined)
    4 | 17 | 0.5% | -4.4 | 7 | -0.1
COCCOC(=O)N1CCCCC1c1cc(C(=O)NCc2ccc(Cl)c(Cl)c2)no1 (centres undefined)
    6 | . | 0.5% | -3.2 | -4 | 0.3
COc1ccc(-c2cc(-c3cc(C)ccc3O)[nH]n2)cc1
    3 | 38 | -0.5% | 3.1 | -2 | 3.9
COc1ccc(-c2ccc(CCC(=O)O)n2-c2ccccc2OC)cc1
    -7 | 1 | 14% | 1.5 | . | -0.5
COc1ccc(CNC(=O)CC2N=C3c4ccccc4N=C(SCC(=O)Nc4ccc(C(C)C)cc4)N3C2=O)cc1 (centres undefined)
    . | 23 | 0.0% | . | . | -0.4
C=CCC(CC=C)(NC(=O)c1cccc(C)c1)c1ccccc1
    35 | -2 | -0.5% | -3.8 | 6 | 4.5
COc1cccc(-c2cc(C(=O)NCCCN3CCOCC3)no2)c1
    1 | -10 | 1.4% | -4.4 | 10 | -1.4
O=C(O)Cn1cnc2c(=S)nc[nH]c21
    -17 | -14 | 1.4% | -4.0 | 7 | -0.6
O=C(COc1ccc(NS(=O)(=O)c2ccc(F)cc2)cc1)N1CCOCC1
    -4 | 7 | 0.1% | -4.4 | . | 0.8
CC1(C)Cc2c(cnn2-c2ccc(F)cc2)C(NC(=O)c2ccco2)C1 (centres undefined)
    -2 | -3 | 3.9% | -3.8 | 5 | 0.1
O=C(NC1CCCCC1)C(c1ccco1)N(C(=O)c1csnn1)c1ccccc1 (centres undefined)
    4 | 3 | 0.1% | 3.3 | -1 | -0.7
CCn1ncc([C@@H]2C[C@H]3CN(Cc4cccc(Cl)c4)C(=O)[C@]34CCCN24)c1C
    5 | -1 | 2.9% | -5.3 | 4 | 0.6
CC/C(=C(/CC)c1ccc(O)cc1)c1ccc(O)cc1
    0 | 12 | 3.9% | 8.3 | -6 | 0.8
Cc1ccc(-c2nc3ncccc3o2)cc1NC(=S)NC(=O)c1ccco1
    -6 | -7 | 3.4% | 3.3 | 1 | -0.3
O=C(COC(=O)c1cc(Cl)ccc1Cl)NCCN1C(=O)CSC1=O
    28 | -6 | 0.6% | -2.9 | 31 | 2.1
COc1ccc(C2=NOC(Cn3nc(C(=O)NCc4cccc(Br)c4)cc3-c3ccccc3)C2)cc1 (centres undefined)
    -6 | 20 | 0.3% | -2.1 | . | 2.0
CCOC(=O)C1=CCC(C(C)(C)C)N(S(=O)(=O)c2ccc(C)cc2)C1 (centres undefined)
    9 | 61 | 4.0% | -5.6 | 11 | 2.3
CC(=O)N1CCC2(CC1)C(C#N)=C(N)Oc1n[nH]c(C)c12
    2 | -11 | 4.6% | 1.7 | -13 | 0.2
Cc1nc2nc(C)n(-c3ccccc3)c2s1
    0 | 20 | 3.7% | -2.0 | -8 | -0.4
Cc1c(C(=O)Nc2cccc(Cl)c2)sc2nc3n(c(=O)c12)N=C(c1cccc(Br)c1)CS3
    . | -11 | 0.8% | . | . | -0.1
Cc1cc([N+](=O)[O-])nn1CCCC(=O)NCc1ccccc1
    3 | -21 | -1.8% | -2.3 | 0 | 0.8
CC1(C(=O)O)CCCN1C(=O)c1ccccc1OC(F)(F)F (centres undefined)
    10 | . | 0.8% | -8.1 | 12 | -0.2
O=C1CCCN1C(=O)CCC(=O)N1CCCC1=O
    7 | -14 | -2.4% | 0.1 | -1 | -0.1
CC(=O)N(c1ccccc1)C1SC(=O)N(c2ccccc2)C1=O (centres undefined)
    -8 | 3 | . | -3.9 | -18 | 0.2
COc1ccc(CN2C(=O)CCC2(C)C(=O)NC2CCCCCC2)cc1 (centres undefined)
    7 | 8 | -7.0%[38.3 µM] | -1.4 | 3 | -0.7
C/C(=N/O)c1ccc2c(c1)OCCOCCOc1cc(/C(C)=N/O)ccc1OCCOCCO2
    0 | -12 | 0.7% | -2.7 | 0 | 1.0
C[C@H](CO)N1C[C@H](C)[C@@H](CN(C)C(=O)Nc2ccccc2)Oc2cc(Br)ccc2S1(=O)=O
    -4 | -1 | 0.6% | -2.4 | 2 | 0.3
O=C(CCCn1c(=S)[nH]c2ccsc2c1=O)Nc1ccc(F)cc1
    -8 | -3 | 1.2% | 0.2 | 2 | -0.3
CC1(C)C(=O)CC[C@]2(C)C3C(=O)C=C4[C@H]5C[C@@](C)(C(=O)O)CC[C@]5(C)CC[C@]4(C)[C@]3(C)CC[C@@H]12 (some centres undefined)
    -2 | 9 | 1.2% | -1.9 | . | -0.6
CC1CCN(C(=O)c2[nH]cnc2C(=O)Nc2ccon2)CC1
    2 | -5 | 1.3% | -0.3 | 1 | -0.4
COC(=O)c1ccc(CSc2nc3sc(C)c(C)c3c(=O)[nH]2)cc1
    2 | -2 | 0.6% | -3.5 | . | -0.7
Oc1ccc2ccccc2c1CNc1ccc2ccccc2c1
    -19 | -4 | -1.4% | 0.3 | -23 | -0.5

Gathered by group, the entries above containing a thiophene ring, fused or not
Results follow in this order: Six1-Eya2 inh | TRPML1 inh | PINK1 modulator | D2 ag | CtBP-E1A inh | TRPML1 agonist
COc1ccc(S(=O)(=O)NCC(=O)N(CC(=O)NC(C)(C)C)Cc2cccs2)cc1
    -5 | -4 | -1.6% | -4.0 | 2 | -0.4
Cc1c(C(=O)Nc2cccc(Cl)c2)sc2nc3n(c(=O)c12)N=C(c1cccc(Br)c1)CS3
    . | -11 | 0.8% | . | . | -0.1
O=C(CCCn1c(=S)[nH]c2ccsc2c1=O)Nc1ccc(F)cc1
    -8 | -3 | 1.2% | 0.2 | 2 | -0.3
COC(=O)c1ccc(CSc2nc3sc(C)c(C)c3c(=O)[nH]2)cc1
    2 | -2 | 0.6% | -3.5 | . | -0.7

The listing continues.
Results follow in this order: Six1-Eya2 inh | TRPML1 inh | PINK1 modulator | D2 ag | CtBP-E1A inh | TRPML1 agonist
CCOc1ccc(NC(=O)CN(C)C(=O)c2c(C)nn(Cc3ccccc3Cl)c2C)cc1OCC
    -3 | -16 | 1.0% | -0.5 | -16 | 2.1
CCN(C(=O)COC(=O)CCC(=O)c1cccs1)c1c(N)n(Cc2ccccc2)c(=O)[nH]c1=O
    8 | -7 | 0.2% | -4.0 | -2 | 0.3
Cc1ccc(S(=O)(=O)C(CNC(=O)C(=O)NCc2ccc(Cl)cc2)c2ccco2)cc1 (centres undefined)
    . | 23 | 0.3% | . | . | 0.4
COc1ccc(C(CCN2CCN(c3ccccc3)CC2)c2c(O)cc(OC)cc2OC)cc1 (centres undefined)
    ? | 54&-7 | 4.0% | 0.4 | -29 | 1.0&-0.1
CC(=O)OCC(=O)N1N=C(c2ccc3ccccc3c2)CC1c1ccccc1 (centres undefined)
    7 | 4 | 2.5% | 1.7 | -1 | -0.2
CCOc1ccc(Nc2ncnc3ccc([N+](=O)[O-])cc23)cc1
    -10 | -23 | 0.0% | 6.4 | -1 | 2.3
C#CCOCCOCCOCCNc1nc(N2CCN(C(=O)C([C@@H](C)CC)n3cc(C(N)COC(=O)C(F)(F)F)nn3)CC2)nc(N2CCN(C(=O)C([C@@H](C)CC)n3cc(C(N)CC(C)C)nn3)CC2)n1 (some centres undefined)
    -3 | 6 | 0.1% | -2.0 | . | 0.1
CCOc1ccccc1NC(=O)c1cnc(N2CCOCC2)c2ccccc12
    . | -4 | 1.4% | . | . | 1.7
CN(CC(=O)N1CCCc2c1c(=O)oc1ccc(O)cc21)Cc1ccccc1
    -8 | -5 | -1.4% | -1.9 | -3 | 0.1
NC(=S)N/N=C/c1coc2ccc(F)cc2c1=O
    7 | -4 | 0.0% | -5.7 | -1 | 0.3
O=C(NCc1nc2ccccc2[nH]1)C1=C[C@H](c2ccc(Br)cc2)C[C@H](OCc2ccc(CO)cc2)O1
    -15 | 12 | 1.1% | 0.7 | -2 | 1.4
NC(=O)c1ccc(N2CCN(S(=O)(=O)c3ccccc3)CC2)c([N+](=O)[O-])c1
    1 | -21 | 1.9% | 1.0 | 3 | 0.2
CCc1ccc(NC(=O)Cn2ccn(-c3ccc(C)c(C)c3)c(=O)c2=O)cc1
    . | 8 | -0.7% | . | . | 1.0
COCC(C)OC(=O)c1c(N)n(CCCN2CCOCC2)c2nc3ccccc3nc12 (centres undefined)
    -13 | -5 | 2.7% | -2.6 | -25 | -0.8
COc1cc(C(=O)NC(C)c2ccccc2)ccc1OCC(=O)N1CCOCC1 (centres undefined)
    5 | 31 | -0.9% | -3.7 | . | -1.1
